High-throughput results deposited in PubChem BioAssay by National Center for Advancing Translational Sciences (NCATS).
Marburg entry inh = blocks Marburg virus binding to or entry into cells | Marburg virus pseudotyped entry inhibition, cell reporter; control for the full effect not named in the record; about a third of the inactives were read at about 46 µM | Potency, µM (top dose mostly 37.8 µM), for the others: at the highest dose activity change, negative = inhibition, usual class: inhibitors | actives 1.8% (n = 300,000); active = well fitted inhibition curve with a large enough effect; inconclusive = small, poorly fitted or top-dose-only effect, or effect the other way; inactive = flat fitted curve, though single readings scatter; tested in HEK293 cells; about a fifth of its hits are not listed in these tables; also: % is scaled to controls: 0 for no effect and ±100 for the full control effect; luciferase read-out
Cruzain noTriton = blocks cruzain activity in detergent-free assay | purified cruzain, Z-FR-AMC fluorescence, no detergent | Potency, µM, for the others: max response, negative = inhibition, actives largely listed as inhibitors | actives 2.3% (n = 200,000) | AID 1476;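 also: plate controls were enzyme without inhibitor for no effect and buffer without enzyme for full effect; nearly all actives have a fitted effect of over 40% in size; top concentration of the series not given in the record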
Target sequence (P25779 123-467 limits assumed): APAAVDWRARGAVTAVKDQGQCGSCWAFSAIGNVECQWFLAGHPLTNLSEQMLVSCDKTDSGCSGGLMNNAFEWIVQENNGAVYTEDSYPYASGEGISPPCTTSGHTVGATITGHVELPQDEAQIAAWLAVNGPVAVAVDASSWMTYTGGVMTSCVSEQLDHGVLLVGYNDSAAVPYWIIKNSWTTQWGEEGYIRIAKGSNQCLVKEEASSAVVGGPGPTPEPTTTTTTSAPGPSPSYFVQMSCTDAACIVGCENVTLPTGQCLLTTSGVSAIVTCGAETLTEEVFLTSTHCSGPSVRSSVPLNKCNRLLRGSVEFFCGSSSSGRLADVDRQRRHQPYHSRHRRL
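Detergent-free condition (0.00005% Triton X-100) in acetate buffer pH 5.5 with DTT. 1.5 nM enzyme and compound were pre-mixed 15 min, then 2 uM Z-FR-AMC substrate added; reaction progress from fluorescence change between first and third reads (60 s).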
2A StopGo = lowers the luciferase signal of an FMDV 2A StopGo reporter. actives 1.2% (n = 410,000). Potency, µM (titrated, usually from 57.9 µM), for inactives: top-dose signal change, negative = less light. human cells with a luciferase reporter of 2A StopGo recoding; control for the full effect not named in the record. AID 1159524; active = well fitted falling curve with a large enough effect; inconclusive = small, poorly fitted or top-dose-only effect; inactive = no such curve, though single readings can be large or run the other way; tested in HEK293T cells; also: % is scaled to controls: 0 for no effect and ±100 for the full control effect; nearly all actives have a fitted effect of over 45% in size; luciferase light after 4 h
Lassa entry inh = Lassa virus entry inhibition. actives 1.2% (n = 300,000). Lassa virus pseudotype entry inhibition, cell reporter; control for the full effect not named in the record. Potency, µM (top dose mostly 37.9 µM), without a hit: top-dose activity change, negative = inhibition, most hits filed as inhibitors; active means well fitted inhibition curve with a large enough effect; inconclusive means small, poorly fitted or top-dose-only effect, or effect the other way; inactive means flat fitted curve, though single readings scatter; tested in HEK293 cells; also: % is scaled to controls: 0 for no effect and ±100 for the full control effect; nearly all actives have a fitted effect of over 50% in size; luciferase read-out
RE007 growth inh = less growth of the S. pombe RE007 Vpr strain; S. pombe RE007 Vpr strain, BacTiter-Glo ATP luminescence, 24 h; control for the full effect not named in the record; Potency, µM (series often up to 92.2 µM), inactives show top-dose activity change, negative = less growth; actives 0.21% (n = 360,000); AID 651644; active = well fitted falling curve with a large enough effect; inconclusive = small, poorly fitted or top-dose-only effect; inactive = no such curve, though single readings can be large or run the other way;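 also: % is scaled to controls: 0 for no effect and ±100 for the full control effect; nearly all actives have a fitted effect of over 50% in size; the assay follows cell death caused by Vpr and the record does not say whether a fall means rescue or toxicity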
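Fission yeast RE007 carrying one integrated HIV-1 vpr copy, seeded at OD 0.01 in PMG+AL medium with 23 nL pinned compound. Grown 24 h at 30 degrees; viability read by BacTiter-Glo luminescence after 5 min.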
Cruzain inh Det = cruzain (T. cruzi) inhibition with detergent | actives 0.43% (n = 200,000) | purified cruzain, Z-FR-AMC fluorescence, 0.01% Triton | Potency, µM, inactives show max response, negative = inhibition, most hits filed as inhibitors | AID 1478 | P25779;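 also: plate controls were neutral wells for no effect and buffer without enzyme for full effect; nearly all actives have a fitted effect of over 40% in size; top concentration of the series not given in the record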
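Z-FR-AMC hydrolysis (2 uM substrate) by cruzain (1.5 nM) monitored kinetically at ex 360/em 450 nm after 15 min room-temperature compound exposure; 0.01% Triton X-100, pH 5.5, 5 mM DTT.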
SARS PLpro yeast = blocks SARS-CoV papain-like protease in a yeast assay | S. cerevisiae expressing SARS-CoV PLpro, growth rescue; control for the full effect not named in the record | Potency, µM (top dose mostly 32.9 µM), for the others: at the highest dose activity, positive = growth rescue | actives 0.19% (n = 330,000) | AID 485353; active means well fitted rising curve with a large enough effect; inconclusive means small, poorly fitted or top-dose-only effect; inactive means no such curve, though single readings can be large or run the other way; also: 0% is about no effect; nearly all actives have a fitted effect of over 55% in size; growth read by luminescence after 48 h
NS1 function inh = influenza NS1 inhibition; S. cerevisiae slowed by influenza A NS1, growth recovery by OD600; Potency, µM (doses to about 46.1 µM), without a hit: top-dose activity, positive = more growth; actives 0.4% (n = 270,000); AID 2326; active means well fitted rising curve with a large enough effect; inconclusive means small, poorly fitted or top-dose-only effect; inactive means no such curve, though single readings can be large or run the other way; also: nearly all actives have a fitted effect of over 50% in size
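In this qHTS, NS1 from influenza A is expressed in budding yeast, where it slows growth. Cells are switched from glucose to 2% galactose medium (pH 6.0, -URA), treated with compound, and growth recovery is read at OD600.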
Numbers without * were called inactive; ? = inconclusive; / = not tested or not shown; & = joins results of further samples; [ ] = dose if it differs, or a comment. Unless noted, calls follow the shape of the dose curve; as a rule, active = well fitted curve in the direction sought with a large enough effect; inconclusive = small, poorly fitted or top-dose-only effect, or another doubt; inactive = no such curve, though single readings can be large; an effect the other way counts as inactive or inconclusive. Potency is read from the fitted curve at half-maximal effect.

SMILES	Marburg entry inh	Cruzain noTriton	2A StopGo	Lassa entry inh	RE007 growth inh	Cruzain inh Det	SARS PLpro yeast	NS1 function inh
COC(=O)c1ccc(NC(=O)C23CC4CC(C2)CC(n2cncn2)(C4)C3)cc1	23%	1%	1%	3%	0%	0.3%	11%	-7%
COc1cc2ccccc2cc1C(=O)N1CCN(c2nc3ccc(F)cc3s2)CC1	/	-12%	?	-5%[46.1 µM]	/	-17%	/	/
Cc1ccccc1NC(=S)NCc1ccccc1	?	2%	57%[activator]	?	2%	-2.7%	16%	-8%
COc1ccc(CCn2c(N3CCN(Cc4ccccc4)CC3)nc3c2c(=O)[nH]c(=O)n3C)cc1	3%	-3%	-2%	?	-4%	-2.6%	0%	-15%
C/C(=N\Nc1nncc2ccccc12)c1ccc(O)cc1	?	/	-17%	?	22%	/	9%	22%
Cc1cc(C)c2c(c1)/C(=N\N=c1\sc3ccccc3n1C)C(=O)N2	3%[46.1 µM]	/	-25%	4%	4%	/	-1%	-2%
CN1/C(=C\C=N\NC(=O)c2ccc(O)cc2)C(C)(C)c2ccccc21	?	20µM*	28µM*	?	-13%	?	10%	-2%
COc1ccc(-c2nc(C#N)c(NCCc3ccccc3)o2)cc1	4%&4%	-12%	/	-8%	-2%	-26%	-1%	1%&-13%
Cc1ccc(S(=O)(=O)N2CCN(C(=O)c3cc4c(C)nn(-c5ccccc5)c4s3)CC2)cc1	?	?	21%	-30%	9%	4.0%	3%	3%
O=C(c1ccc(N2C(=O)C3CC=C(Cl)CC3C2=O)cc1)N1CCCCC1 (stereo not given)	-14%	-3%	9%	9%	21%	-2.1%	-1%	-9%
CCOc1ccccc1-c1nc(-c2ccncc2)no1	-28%	-5%	25%	16%	?	2.4%	/	-49%
Cc1nn(CC(=O)Nc2ccc(Cl)cn2)c(C)c1[N+](=O)[O-]	-4%[46.1 µM]	-5%	10%	8%	9%	3.5%	-1%	13%
Cc1c(C(=O)Nc2ccc(F)cc2F)nnn1-c1ccccc1Br	0%[46.1 µM]	9%	5%	12%[46.1 µM]	/	-1.4%	/	/
COc1ccc(C(=O)N/C(=C\c2cccs2)c2nc3ccccc3[nH]2)cc1OC	-6%	7%	0%	4%	-11%	-11%	-1%	-30%
CS(=O)(=O)c1ccc(Cl)c(NC(=O)COC(=O)Cc2c[nH]c3ccccc23)c1	-4%[46.1 µM]	/	15%	1%	-9%	/	1%	/
CC(C)C(=O)N1CCN(c2ccccc2NC(=S)NC(=O)c2cccs2)CC1	?	/	-14%	?	1%	/	1%	4%
CCN(CC)S(=O)(=O)c1ccc(Cl)c(C(=O)NCc2ccco2)c1	/	/	-6%	/	1%	/	0%	2%
CCCCOc1cccc(C(=O)Nc2ccc(S(=O)(=O)Nc3nnc(CC)s3)cc2)c1	/	/	9%	/	-2%	/	-5%	8.9µM*
O=C(Nc1ccc(Cl)cc1)N1CCSCC1	27%	-7%	7%	-2%	8%	3.1%	-1%	-2%
CCN(CC(=O)Nc1cc(Cl)ccc1C)C(=O)COc1cccc2c1OC(C)(C)C2	-18%	/	-3%	-7%	-11%	/	1%	0%
Cc1ccc(NC(=S)N(CCN2CCOCC2)Cc2cc3cc4c(cc3[nH]c2=O)OCO4)cc1	-22%	/	8%	-4%	-8%	/	19%	-1%
Cc1ccc(N2C(=O)C3C(C2=O)C2C=CC3C23CC3)cc1 (stereo not given)	12%	2%	26%	1%	-4%	-1.0%	2%	-3%
CC12CC[C@H]3[C@@H](CCC4(O)C[C@H](O)CCC34/C=N/NC(=O)c3ccccc3F)C1(O)CCC2C1=CC(=O)OC1 (stereo not given in full)	/	/	1%	/	-8%	/	-3%	7%
CC(c1nnc(SCC(=O)Nc2sccc2C#N)n1-c1ccc(Cl)cc1)N(C)C (stereo not given)	-1%&5%	0%	/	-10%	14%	-0.1%	7%	3%
COc1ccc(Cc2nnc(SCC(=O)Nc3c(C)cccc3C)[nH]c2=O)cc1	6%	/	-21%	19%	2%	/	-3%	/
Cc1cccc(C(=O)Nc2nnc(C3=COCCO3)o2)c1	3%[46.1 µM]	/	11%	-17%	1%	/	0%	-2%
Cc1cc(N)n2ncc(-c3ccccc3)c2n1	?	3%	46%[activator]	-19%	-20%	-5.8%	-8%	-12%
Cc1cc(/C=N/NC(=O)c2ccc(O)cc2)c(C)n1CC(C)C	/	/	25%	/	-12%	/	0%	2%
Cc1ccc2nc(Cl)c(C3CC(c4ccco4)=NN3S(C)(=O)=O)cc2c1 (stereo not given)	5%[46.1 µM]	/	41%[activator]	-1%	25%	/	0%	1%
O=c1c(-c2cccc(Cl)c2)c[nH]n1-c1ccccc1	?	/	22%	0%	-6%	/	-11%	-62%
O=C(NC(=S)N1CCN(CCO)CC1)C12CC3CC(CC(C3)C1)C2	?	/	-12%	23%[46.1 µM]	-20%	/	1%	2%
O=C1/C(=C\c2ccco2)SC(=S)N1Cc1ccccc1	15%[46.1 µM]	-16%	-17%	-14%	-18%	-29%	4%	2%
COc1ccccc1N1CCN(S(=O)(=O)c2c(C)sc3ncn(CC(=O)N(C)c4ccc(Cl)cc4)c(=O)c23)CC1	?	?	-16%	?	/	-2.8%	/	/
Cc1csc(SCC(=O)NCc2ccccc2Cl)n1	19%[46.1 µM]	/	48%[activator]	?	-15%	/	1%	/
Cc1c(C)n2c(SCC(=O)N3CCCCC3)nnc2[nH]c1=O	1%[46.1 µM]	/	-21%	10%	-12%	/	5%	/
C[C@H](NC(=O)c1nc[nH]c1C(=O)N[C@@H](C)C(=O)OC(C)(C)C)C(=O)OCc1ccccc1	/	/	-2%	/	2%	/	-3%	14%
COc1cc(NC(=O)c2cccnc2)c(Cl)cc1NC(=O)c1ccc(Cl)cc1	12%	/	-15%	-2%	-20%	/	-7%	4%
CCN1CCN(C(=S)c2ccc(OCC(=O)NCc3ccccc3)cc2)CC1	-8%[46.1 µM]	/	-5%	17%[46.1 µM]	1%	/	-1%	2%
CC(C)NC(=S)N/N=C/c1ccc2c(c1)OCCO2	?	-7%	28%	2%	-17%	-11%	16µM*	3%
O=C(CSc1nnc2ccc(-c3ccccn3)nn12)Nc1ccccc1	3%	/	-2%	-1%	11%	/	/	/
CCCOc1ccc(-c2c(=O)n(O)c3ccccc3[n+]2[O-])cc1	?	/	22%	5%[46.1 µM]	-14%	/	4%	-63%
O=C(NCc1ccccn1)c1ccc(CNS(=O)(=O)c2cccc(C(F)(F)F)c2)cc1	10%[46.1 µM]	/	0%	2%	20%	/	-1%	-3%
CC[n+]1c(/C=C/Nc2ccccc2)oc2ccc(OC)cc21	?	/	-2%	-12%	1%	/	0%	-2%
CCOC(=O)c1c(NC(=O)c2cccc(N3C(=O)CCC3=O)c2)sc(C)c1C	1%	?	-2%	5%	-8%	-14%	-5%	9%
O=C(NC1CCCCC1)C1CCCN1S(=O)(=O)c1ccc(F)cc1 (stereo not given)	10%[46.1 µM]	/	-12%	-2%	-2%	/	12%	5%
O=C(N/N=C/c1ccccn1)c1cc(-c2cccc3ccccc23)n[nH]1	4%	5%	-24%	?	4%	-11%	3%	8%
CCN(CC)C(=O)c1cc2c(=O)n3cccc(C)c3nc2s1	?	/	44%[activator]	16%	-18%	/	1%	-8%
COc1ccc(N2CCN(C(=O)c3cccc(NC4=NC5CS(=O)(=O)CC5S4)c3)CC2)cc1 (stereo not given)	/	/	-5%	/	9%	/	2%	1%
CCC(CC)c1nnc(NC(=O)CS(=O)(=O)c2ccc(C)cc2)s1	5%[46.1 µM]	/	2%	8%[46.1 µM]	9%	/	2%	-6%
Cc1nc2sc(C(c3ccccc3)N3CCOCC3)c(O)n2n1 (stereo not given)	1%	-1%	/	0%	6%	-3.7%	0%	7%
Cc1ccc(S(=O)(=O)N(C)C)cc1NC(=O)COC(=O)COc1ccc2c(C)cc(=O)oc2c1	4%	/	-5%	-8%	1%	/	5%	/
O=C1/C(=C/c2cccs2)SC(=S)N1c1cccc(O)c1	12%[46.1 µM]	/	16%	1%[46.1 µM]	1%	/	0%	2%
Cc1nc(N2CCN(Cc3ccccc3)CC2)c(C#N)c2c1COC(C)(C)C2	-24%&-24%	-16%	?	-14%	-9%	-0.9%	-8%	12%
O=[N+]([O-])c1cc2c(cc1Br)CCN2	-3%[46.1 µM]	/	9%	-22%[46.1 µM]	-2%	/	0%	6%
Cn1c(=O)c2c(nc(N/N=C/c3ccc(OC(=O)c4ccco4)cc3)n2Cc2ccc(F)cc2)n(C)c1=O	16%	?	?	1%	6%	-15%	?	7%
CCOc1ccccc1NC(=O)c1c(NC(=O)c2ccccc2)sc2c1CCCC2	/	8%	73%[activator]	5%[46.1 µM]	/	0.5%	/	/
CC(C)OC(=O)c1cc(C(=O)c2cc(Br)ccc2O)coc1=N	-7%	/	-12%	1%	-2%	/	0%	/
c1nc2ccc(Cc3ccc4nc[nH]c4c3)cc2[nH]1	/	/	67%[activator]	/	-4%	/	-8%	3%
CCCCn1c(N)c(N(CCOC)C(=O)c2c(C)noc2C)c(=O)[nH]c1=O	7%	/	5%	5%	6%	/	1%	/
Cc1ccccc1NC(=O)NNC(=O)COc1ccc2ccccc2c1	-8%	/	-6%	10%	-7%	/	0%	7%
Continued.
SMILES	Marburg entry inh	Cruzain noTriton	2A StopGo	Lassa entry inh	RE007 growth inh	Cruzain inh Det	SARS PLpro yeast	NS1 function inh
Cc1ccccc1C(=O)Nc1ccccc1C(=O)NCc1ccccc1	-20%	-4%	?	-13%	8%	-1.9%	-11%	-36%
CCN(CC)c1ccc(NC(=O)c2ccco2)cc1	?	4%	-23%	?	-8%	0.4%	-2%	-14%
Cc1cccc(C)c1Nc1nnc(SCC(=O)c2ccc(Br)s2)s1	?	?	-35%	?	-3%	-5.3%	?	20%
COc1ccc(-c2cc3nc(N)cc(=O)n3[nH]2)cc1	3%[46.1 µM]	-1%	13%	2%[46.1 µM]	/	-5.2%	/	/
Cc1ccc(C)c(NC(=O)Cn2cc(C(=O)C3CCCCC3)c3ccccc32)c1	?	-3%	-22%	/	/	-0.3%	/	/
